HPGD inh: HPGD (human) dehydrogenase inhibition; P15428; purified HPGD, NADH fluorescence kinetic, PGE2 substrate; Potency, µM, for the others: top-dose activity change, negative = inhibition, usual class: inhibitors; actives 4.3% (n = 150,000); AID 894; active = well fitted inhibition curve with a large enough effect (not every such curve was filed as active); inconclusive = small, poorly fitted or top-dose-only effect, or another doubt; inactive = no such curve, though single readings can be large or run the other way;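 further: top concentration of the series not given in the record; plate controls included wells without enzyme; inactives centre near -10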
Target sequence (P15428 whole entry, looked up): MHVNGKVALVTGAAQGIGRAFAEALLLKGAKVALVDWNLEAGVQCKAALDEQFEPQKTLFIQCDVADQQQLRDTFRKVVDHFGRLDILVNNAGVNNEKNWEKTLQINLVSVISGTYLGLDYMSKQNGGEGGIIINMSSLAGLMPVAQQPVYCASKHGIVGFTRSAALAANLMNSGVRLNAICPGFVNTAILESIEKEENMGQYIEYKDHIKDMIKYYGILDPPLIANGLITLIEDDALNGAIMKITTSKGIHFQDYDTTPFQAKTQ
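NADH formation kinetics: reaction with 30 uM PGE2 and 1 mM NAD+ (final), 20 nM enzyme, Tris-HCl pH 8 with Tween 20, after 15 min compound preincubation at room temperature. Fluorescence change, last versus first of five reads.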
Numbers without * were called inactive; ? = inconclusive; & = joins results of further samples. On the % scale 0 is the no-effect control and ±100 the full control effect; potency means the concentration at half of the fitted maximal effect.

SMILES	HPGD inh
CC12CCC(C(=O)NCc3ccccc3Cl)(C(Br)C1=O)C2(C)C (configuration not stated)	-13%
COCCOC(=O)C1=C(C)Nc2ncnn2C1c1ccccc1 (configuration not stated)	-15%
O=c1c2ccccc2nc(SCc2cccc(F)c2)n1C1CCCC1	-4%
COc1ccc(N2CCN(CC(=O)Nc3nc4c(s3)CC(C)CC4)CC2)cc1 (configuration not stated)	-7%
Cc1cc(C)c(NC(=O)CSc2nc3ccc(NC(=O)CSc4nnnn4-c4ccccc4)cc3s2)c(C)c1	-18%
CC(=O)Nc1nc(S(=O)(=O)c2ccc(C)cc2)c(Cl)s1	-21%
O=C(O)c1ccc2c(c1)NC(=O)C(N1CCCC1)S2 (configuration not stated)	-16%
COc1cccc(CNC(=O)C2CCCN(S(=O)(=O)c3cccc4nonc34)C2)c1 (configuration not stated)	-2%
COc1ccc(-c2sc(NC(C)=O)nc2-c2ccccc2)cc1	-10%
CCCCCCOC(=O)C1(O)CC2OC1(C)n1c3ccccc3c3c4c(c5c6ccccc6n2c5c31)C(=O)NC4 (configuration not stated)	-12%
CCOc1ccc(NC(=O)Cn2nnc(-c3ccccc3NC(=O)c3cccs3)n2)cc1	?
N#Cc1c(-c2ccccc2)nc(SCC(=O)Nc2ccccc2)[nH]c1=O	-25%
CC(=O)Nc1ccc(NC(=O)C(C)Oc2ccccc2F)cc1 (configuration not stated)	-3%
COC(=O)N/N=C/c1ccc([N+](=O)[O-])s1	-16%
O=C(NCCc1ccncc1)Nc1ccc(Cl)cc1	-16%
COCc1cc(C)nc(N2CCNCC2)c1C#N	?
Cn1cccc1C(=O)C(=O)Nc1cc(Cl)cc(Cl)c1	?
CCc1ccc(N2C(=O)C(Cl)=C(N3CCOCC3)C2=O)cc1	-11%
COc1ccc2nc(NC(=O)CSc3nc(C)cc(=O)[nH]3)sc2c1	28µM*
CC(=O)Nc1ccc(S(=O)(=O)NCC2CCC(C(=O)NCCCN3CCCC3=O)CC2)cc1 (configuration not stated)	-2%
Cc1cc(C)cc(OCC(=O)NNC(=O)c2cc3ccccc3o2)c1	?
Cc1ccc(S(=O)(=O)N2CCCCC2)cc1NC(=O)COC(=O)Cc1cccc2ccccc12	0%
CCOC(=O)N1CCN(C(=O)CS(=O)(=O)c2cn(Cc3ccccc3Cl)c3ccccc23)CC1	-7%
Cc1ccc(S(=O)(=O)/N=C(/Nc2c(C)n(C)n(-c3ccccc3)c2=O)c2ccccc2)cc1	-2%
CCOC(=O)Cc1cc(-c2ccc(F)cc2)nc2ccc3ccccc3c12	?

Among those listed so far, two have a cyano group:
SMILES	HPGD inh
N#Cc1c(-c2ccccc2)nc(SCC(=O)Nc2ccccc2)[nH]c1=O	-25%
COCc1cc(C)nc(N2CCNCC2)c1C#N	?

Continuation.
SMILES	HPGD inh
CCCCCn1nc(-c2ccccc2)c2nc3ccccc3nc21	-8%
Cc1cc(C)c2c(c1)OC(O)(C(F)F)CC2=O (configuration not stated)	-12%
CCOc1ccc(Nc2cc(C)nc(N3CCOCC3)n2)cc1	-6%
O=C(CC1Nc2ccccc2NC1=O)NCCc1ccccc1 (configuration not stated)	-17%
Cc1nn(Cc2ccccc2)c(C)c1NC(=O)c1ccc([N+](=O)[O-])cc1[N+](=O)[O-]	-3%
CN(/C(=N/S(=O)(=O)c1ccccc1)c1ccccc1)S(=O)(=O)c1ccccc1	-14%
COC(=O)C(F)(Sc1c(C)n(C)n(-c2ccccc2)c1=O)C(F)(F)F (configuration not stated)	-1%
CN=C1SC(CC(=O)NCCc2ccc(OC)c(OC)c2)C(=O)N1C (configuration not stated)	-6%
CC(C)(C)c1ccc(C(=O)C=[N+]=[N-])cc1	-22%
CCOC(=O)C1CCCN(Cc2ccccc2F)C1 (configuration not stated)	-5%
COc1cc(C(=O)OCC(=O)N2CCCC2)cc(OC)c1OC	-5%
O=C(CSc1nnc(SCc2ccc(Cl)cc2)s1)N/N=C/c1ccccc1Cl	-4%
COc1ccc2[nH]c(=O)c(CN(Cc3ccco3)C(c3nnnn3Cc3ccccc3)C(C)C)cc2c1 (configuration not stated)	?
CC(C)CCNC(=O)c1cccnc1Sc1ccccc1	-8%
COc1ccc2c(c1)CCc1c(C(=O)Nc3ccc(OC)c(OC)c3)noc1-2	-11%
CCCn1nnnc1SCC(=O)c1ccc2c(c1)OCCO2	-24%
CCCCC(CC)COC(=O)c1ccccc1C(=O)O (configuration not stated)	1%
CS(=O)(=O)NCCCNc1c(Cl)cccc1[N+](=O)[O-]	-10%
Cc1cccc(C)c1NC(=O)CSc1nnnn1C	-8%
O=C(O)c1ccccc1S(=O)(=O)Cc1ccccc1	-7%
Cc1cc(-c2cc(N)n(-c3ccccc3)n2)c(C)n1C1CCCC1	-9%
O=C(O)C(Cc1c[nH]c2ccccc12)NS(=O)(=O)c1ccccc1 (configuration not stated)	-9%
O=C(c1nn(-c2ccccc2)c(=O)c2ccccc12)N1CCN(c2ccccn2)CC1	-4%
Cc1ccc(C(=O)NCCc2nc3ccccc3[nH]2)cc1[N+](=O)[O-]	-14%
COc1ccc(OC)c(N)c1	-5%

5 entries from above, arranged by their value in HPGD inh, rising.
mol | HPGD inh
Cc1ccc(C(=O)NCCc2nc3ccccc3[nH]2)cc1[N+](=O)[O-] | -14%
COc1ccc2c(c1)CCc1c(C(=O)Nc3ccc(OC)c(OC)c3)noc1-2 | -11%
CS(=O)(=O)NCCCNc1c(Cl)cccc1[N+](=O)[O-] | -10%
Cc1cccc(C)c1NC(=O)CSc1nnnn1C | -8%
COc1cc(C(=O)OCC(=O)N2CCCC2)cc(OC)c1OC | -5%

The main list resumes; the four compounds before the break are reprinted first.
SMILES	HPGD inh
O=C(O)C(Cc1c[nH]c2ccccc12)NS(=O)(=O)c1ccccc1 (configuration not stated)	-9%
O=C(c1nn(-c2ccccc2)c(=O)c2ccccc12)N1CCN(c2ccccn2)CC1	-4%
Cc1ccc(C(=O)NCCc2nc3ccccc3[nH]2)cc1[N+](=O)[O-]	-14%
COc1ccc(OC)c(N)c1	-5%
CC(=O)c1cc(-c2ccccc2)n(CCC(=O)NC2CCC(C)CC2)c1C (configuration not stated)	-1%
CN(c1cccc(Cl)c1)S(=O)(=O)c1cccc(C(=O)NC2=NCCS2)c1	-11%
COc1cccc(CN(CC(=O)NC2CCCC2)C(=O)CCC(=O)Nc2cc(C)on2)c1	0%
CN(C)C(=O)C12CCC(C)(c3nc4ccccc4nc31)C2(C)C (configuration not stated)	-3%
CCCNS(=O)(=O)c1ccc(CCC(=O)Nc2cc(Cl)ccc2Oc2ccccc2)cc1	-4%
CCOc1cc(N2CCOCC2)c(OCC)cc1NC(=O)C1CCCC1	0%
O=C1CSC(c2ccncc2)N1Cc1ccco1 (configuration not stated)	-8%
COc1ccc(CCNC(=O)COc2nsnc2N2CCOCC2)cc1OC	-2%
O=c1cc(-c2ccccc2)c2c([nH]1)CCCC2	-2%
O=C(c1ccccc1)N1CCCCC(S(=O)(=O)c2ccccc2)C1=O (configuration not stated)	0%
COc1ccc(C(=O)N2CCC(O)(c3ccc(F)cc3)CC2)cc1OC	-7%
Cc1cc(NCCCN2CCOCC2)n2nc(C)c(-c3ccccc3)c2n1	-13%
COc1cc(-n2ccnc2SC)c(Cl)cc1Cl	-27%
CC(C)(C)OC(=O)N/N=C/c1ccc(N2CCOCC2)s1	-20%
COC(=O)c1ccccc1NC(=O)NCC1CCCO1 (configuration not stated)	?
Cc1ncc(CSc2nnnn2-c2ccccc2)c(N)n1	-2%
O=C(CCCCCn1c(=S)[nH]c2ccc(N3CCOCC3)cc2c1=O)NCCc1ccccc1	-15%
Clc1ccc(Sc2cc(Cl)c(-c3ccccc3)nn2)cc1	-30%
Cc1ccccc1CN1CCN(CC(=O)NCc2ccco2)C1=O	-14%
O=C(/C=C/c1ccc(F)cc1)NC(=S)NNC(=O)c1cccnc1	-18%
O=C(CSc1nnc(-c2cccs2)n1-c1ccccc1)NCc1ccco1	-2%
CCC(=O)c1ccccc1OCCCN1C(=O)NC(C)(C)C1=O	-11%
CCCC(CCC(=O)Nc1ccc(C(=O)OC)cc1)C(=O)O (configuration not stated)	-6%
O=C(NN=C1CCCCCC1)c1cn(-c2ccccc2)nc1-c1ccccc1	-4%
CCNc1nc(NC(C)C)nc(Oc2ccc(/C=N/O)cc2)n1	-11%

(more compounds)
SMILES	HPGD inh
O=C(CSc1nc2c(cnn2-c2ccc(F)cc2)c(=O)[nH]1)N1N=C(c2cccs2)CC1c1ccc(F)cc1 (configuration not stated)	?
Cc1nc2ccccc2n1CC(O)Cn1c(C(F)(F)F)nc2ccccc21 (configuration not stated)	-6%
CCn1c(SCC(=O)Nc2cc(C(C)(C)C)nn2-c2ccccc2)nnc1-c1cccs1	0%
CCOc1ccc(C(=O)OCCN(C)C)cc1	-14%
C[C@@H]1C[C@](C)(C(=O)c2ccc3c(c2)OCO3)C=C1c1ccc2c(c1)OCO2	3%
CCOCCn1c(CN(Cc2ccccc2)Cc2ccccc2)nc2c1c(=O)[nH]c(=O)n2C	-6%
O=C1C2C3C=CC(C3)C2C(=O)N1c1ccc2c(c1)OCO2 (configuration not stated)	-19%
C[C@@H](C(=O)Nc1ccc2ccccc2c1)[C@H]1C[C@]1(C)[C@H](NS(=O)(=O)c1ccc(-c2ccccc2)cc1)c1ccccc1	-23%&-19%
CCN1C(=O)N[C@@H](c2ccccc2)[C@@H](C(=O)OC)[C@H]1C	-7%
C/C(=N\NC(=O)c1nn(C)cc1Br)c1ccc(NC(=O)c2ccncc2)cc1	-10%
COc1ccccc1NC(=O)c1ccc(NC(=O)COC(=O)C2(C)CC2(Cl)Cl)cc1 (configuration not stated)	-23%
O=C(/C=C/c1ccc2c(c1)OCO2)Nc1nc2ccccc2s1	?
C/C(=N\NC(=O)C1(C)CC1(Br)Br)c1ccc(NC(=O)C2CCC2)cc1 (configuration not stated)	-8%
O=C(CSCc1ccco1)c1cccs1	16µM*
COc1cccc(Nc2ncc(C(=O)O)c3ccccc23)c1	-12%
CN1CCN(CCCC(=O)c2ccc(F)cc2)CC1	-1%
CCOC(=O)C(Cc1ccccc1)NC(C)=O (configuration not stated)	-11%
O=C(O)c1ccc(N/N=C/c2ccc(OC(=O)c3ccccc3Cl)cc2)cc1	25µM*
Cc1ccc(N(C(=O)C(F)(F)F)C(C(=O)NC2CCCCC2)c2cccs2)cc1 (configuration not stated)	-1%
O=C(c1n[nH]c(=O)c2ccccc12)N1CCN(c2ccccc2)CC1	?
CC(C)n1cc(NC(=O)c2cc(-c3ccccc3)on2)cn1	-4%
CCCCCN1CC(O)=C(c2ccccc2)C1=N	-16%
C[C@@H]1C=C[C@](Cc2ccccc2)(C(=O)NCCN2CCOCC2)N1C(=O)c1ccccc1	-6%
Cc1ccc(S(=O)(=O)NCCSC(C)(C)C)cc1	-4%
CCO/C=C/C(O)(CNC(=O)COc1ccccc1F)C(F)(F)F (configuration not stated)	-13%

Remaining list, next part.
SMILES	HPGD inh
Cc1ccc2[nH]c(=O)c(CN(Cc3cccs3)S(=O)(=O)c3ccc4c(c3)OCCO4)cc2c1	-28%
O=S(=O)(NCCSCc1ccc(Cl)cc1Cl)c1ccc2c(c1)OCCO2	-3%
Cn1c2ccccc2c2c(C(=O)N3CCN(c4ccccc4)CC3)cn(C3CCCC3)c(=O)c21	?
Cc1ccc(NC(=O)N2CCCC2C(=O)Nc2ccc(-n3cnnn3)c(C)c2)cc1 (configuration not stated)	1%
COC(=O)c1ccc(Sc2ccccc2NS(=O)(=O)c2ccc(C)cc2)nc1	0%
Cc1ccc(NC(=S)N(CCCN2CCOCC2)Cc2ccco2)cc1Cl	-4%
CCCCNC(=O)CNC(=O)c1cccs1	-12%
Cc1ccccc1S(=O)(=O)c1c(C)cc(-c2ccccc2)[nH]c1=O	-13%
CCCCN(C)CCNC(=O)Cn1ncc2c(=O)oc3ccc(C)cc3c21	1%
O=C(Nc1cccc(F)c1)C1CC(=O)N(c2ccc(Br)cc2)C1 (configuration not stated)	-9%
CCC(=O)n1nc(-c2ccco2)nc1N	-8%
COC(=O)c1cc2ccsc2n1CC(=O)Nc1cc(Cl)ccc1OC	-13%
COc1cc(OC)c2c(-c3ccccc3)cc(=O)oc2c1C(CCN1CCOCC1)c1ccc(N(C)C)cc1 (configuration not stated)	-9%
COc1ccc(NC(=O)/C=C/c2ccc(F)cc2)cn1	-4%
COc1cc(C(=O)Nc2cccc(-c3nc4cc(C)ccc4o3)c2C)cc(OC)c1OC	-7%
Cc1cc(C(=O)N2CC(C)CC(C)C2)n(-c2ccccc2)n1 (configuration not stated)	-4%
CCn1c(NC)cc(=O)n(C)c1=O	-7%
CCc1ccc(CCC(=O)Nc2sc3c(c2C#N)CCCC3)o1	-27%
O=C(CSc1nnc(Nc2ccccc2F)s1)NCc1ccco1	-26%
Cc1cc(C)c(S(=O)(=O)NCCCN2CCOCC2)cc1Br	-6%
CCOC(=O)/C(N)=C/c1ncc(C(F)(F)F)cc1Cl	?
CSc1nc(-c2ccccc2)nn1S(=O)(=O)c1ccc(Cl)cc1	-6%

Reformatted with each value named: part of the list above
molecule: Cn1c2ccccc2c2c(C(=O)N3CCN(c4ccccc4)CC3)cn(C3CCCC3)c(=O)c21
  HPGD inh = ?
molecule: Cc1cc(C(=O)N2CC(C)CC(C)C2)n(-c2ccccc2)n1 (configuration not stated)
  HPGD inh = -4%
molecule: CCOC(=O)/C(N)=C/c1ncc(C(F)(F)F)cc1Cl
  HPGD inh = ?
molecule: O=S(=O)(NCCSCc1ccc(Cl)cc1Cl)c1ccc2c(c1)OCCO2
  HPGD inh = -3%

An excerpt, so the mix of outcomes need not match the whole.
